# Arbovirus inh: antivirals against arbovirus infection, primary screen, cell-based, full library, 10K replicate subset; 0.37% of 200,000 active; inhibition, % at 10 µM; arbovirus infection cell-based antiviral screen;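 active means inhibition from about 30%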;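 further: bluetongue infection of BSR cells; cell survival read as ATP light after 72 h; 0% = infected wells without compound and 100% = uninfected wells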
# RecA intein inh: Mtb RecA intein splicing inhibitors, primary screen, biochemical, fluorescence, HTS. AID 2221, 2009. Protein RecA (Mycobacterium tuberculosis (strain ATCC 25618 / H37Rv)), P9WHJ3. cell-free RecA intein splicing. inhibition, %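 (about 9 µM by stock and volumes)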. 0.75% of 290,000 active; in the data active means inhibition above about 30%; inconclusive means no clear call, values can overlap the other calls;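 further: 0% = vehicle wells and 100% = reference inhibitor control wells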
# Target sequence (P9WHJ3 whole entry, looked up): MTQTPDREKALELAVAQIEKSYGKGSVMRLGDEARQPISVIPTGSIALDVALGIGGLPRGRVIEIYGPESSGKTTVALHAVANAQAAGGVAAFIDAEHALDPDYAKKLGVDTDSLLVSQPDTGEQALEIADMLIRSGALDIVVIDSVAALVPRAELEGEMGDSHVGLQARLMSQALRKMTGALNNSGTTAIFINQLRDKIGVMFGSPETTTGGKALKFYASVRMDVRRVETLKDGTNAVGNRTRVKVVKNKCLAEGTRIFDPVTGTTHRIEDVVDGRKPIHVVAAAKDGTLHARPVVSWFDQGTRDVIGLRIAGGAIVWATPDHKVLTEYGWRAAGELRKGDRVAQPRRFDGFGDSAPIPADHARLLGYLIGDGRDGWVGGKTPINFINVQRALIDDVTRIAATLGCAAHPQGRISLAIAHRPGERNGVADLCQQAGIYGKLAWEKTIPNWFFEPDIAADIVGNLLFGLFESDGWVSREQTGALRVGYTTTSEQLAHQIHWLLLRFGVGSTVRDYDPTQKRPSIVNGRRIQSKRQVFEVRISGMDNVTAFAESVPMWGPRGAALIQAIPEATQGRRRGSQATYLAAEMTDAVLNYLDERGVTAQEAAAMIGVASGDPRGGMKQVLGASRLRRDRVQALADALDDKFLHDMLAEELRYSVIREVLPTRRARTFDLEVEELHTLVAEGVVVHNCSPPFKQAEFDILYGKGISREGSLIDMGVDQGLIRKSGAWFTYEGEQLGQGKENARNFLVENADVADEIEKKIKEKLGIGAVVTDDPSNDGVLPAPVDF
# Mtb bLac sens: beta-lactam sensitization of Mtb H37Rv, H37Rv. inhibition, % at 25 µM. AID 434955, 2010. 0.27% of 330,000 active. M. tuberculosis H37Rv growth with meropenem, percent inhibition; hits of this screen are not shown here;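 active means about 74% or more and at least 40 points above the plate without the antibiotic, then above 30% in a dose series; inconclusive means first-round hits that could not be retested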;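 further: growth measured after seven days incubation then overnight dye step; 0% = bacteria only wells and 100% = bacteria with antibiotic; twin plates without the antibiotic show which effects depend on it; some results filed as inactive read as strong as hits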
# YopH PTP inh: YopH tyrosine phosphatase inhibitors, primary screen, biochemical, fluorescence Ex485/Em525; 0.16% of 140,000 active; YopH tyrosine phosphatase [Yersinia enterocolitica]; inhibition, %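 (about 10 µM by stock and volumes)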; AID 898, 2007;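 active means inhibition of 50% or more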;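 further: controls were vehicle for no effect and minimum signal wells for full effect; inactives centre near -20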
# Mtb H37Rv: M. tuberculosis H37Rv growth inhibitors, H37Rv strain (AID 1626). inhibition, % at 10 µM; hits with a dose series show IC50 in µM. M. tuberculosis H37Rv growth inhibition; higher % means a stronger effect. 0.95% of 220,000 active;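 active means confirmed in a dose series; inconclusive means inhibition above 80% but not taken into the dose series; inactive means below 80% or under 30% at every dose of the series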;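 further: bacteria incubated seven days before Alamar blue readout; 0% = bacteria only wells and 100% = bacteria with antibiotic wells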
# Arbovirus inh repeat: recorded beside Arbovirus inh, whose call it bears; inhibition, %; measured here: 10K subset replicate screen; many hits read low in the repeat;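 first of two repeat runs on a subset; 0% = infected and 100% = uninfected wells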
# * hit, by the source's call; u = inconclusive; x = no result given. The list is partial; the hit share may differ from the screen's.
SMILES,Arbovirus inh,RecA intein inh,Mtb bLac sens,YopH PTP inh,Mtb H37Rv,others
O=C(NCCc1ccccc1)C1c2ccccc2C(=O)N1Cc1cccs1 (centres undefined),-6.2,-3.6,-6.0,x,1.1%,
O=C(O)c1cc(=O)cc(C(=O)O)[nH]1,5.9,0.9,-8.7,-20.2,-3.2%,
CN1CCC(=NNC(=O)c2ccc(N(Cc3ccc(Cl)cc3)S(C)(=O)=O)cc2)CC1,-8.2,5.1,-3.7,-20.6,9.8%,
Cc1nn(CCCC(=O)Nc2sc3c(c2C#N)CCC3)c(C)c1[N+](=O)[O-],-2.0,x,4.2,-15.8,1.5%,
CCCCN(C(=O)CC(c1ccccc1)c1ccccc1)c1c(N)n(CCC)c(=O)[nH]c1=O,-1.0,3.5,-3.8,-2.8,-3.2%,
O=C1/C(=C/C=C/c2ccco2)SC(=S)N1NS(=O)(=O)c1ccccc1,x,x,1.4,x,-3.7%,
CCn1c(C)[n+](Cc2ccccc2)c2ccc(Cl)cc21,-2.3,0.2,1.4,x,-6.9%,
Cc1ccc(S(=O)(=O)N2CCCC(C(=O)N(Cc3cccs3)C3CC3)C2)cc1 (centres undefined),-0.3,9.2,-8.1,-9.5,-5.0%,Arbovirus inh repeat=-0.3
O=C(CC12CC3CC(CC(Br)(C3)C1)C2)Nc1nncs1,x,-0.4,9.2,x,x,
O=C(CCNS(=O)(=O)c1ccccc1C(F)(F)F)N1CCN(C(c2ccccc2)c2ccccc2)CC1,x,7.6,-11.3,x,x,
c1ccc(Cn2nnnc2C(c2cccs2)N2CCOCC2)cc1 (centres undefined),4.0,0.1,-7.0,-39.8,-3.0%,
O=C1ON=C(c2ccccc2)/C1=C/c1ccc(O)cc1,x,-2.1,2.0,x,x,
CCN(CC)S(=O)(=O)c1ccc(N2CCOCC2)c(NC(=O)c2ccc(C#N)cc2)c1,6.0,0.7,9.2,x,4.1%,
C/C(=N\NC(=O)c1nn(C)c(C)c1Br)c1ccc(NC(=O)c2ccccc2F)cc1,-16.2,8.1,-7.9,-13.2,0.7%,
c1ccc(-c2nc3ccccn3c2-c2ccccc2)cc1,x,13.5,-4.5,x,x,
CCOC(=O)CC1C(=O)NCCN1S(=O)(=O)c1ccc(NC(C)=O)cc1 (centres undefined),x,-3.5,-13.5,x,x,
COCCCn1nnnc1SCC(=O)N1c2ccccc2CC1C (centres undefined),-4.9,-0.5,-3.7,x,1.1%,
COc1ccc(N2CCN(Cc3cc(=O)oc4ccc(C)cc34)CC2)cc1,-18.7,x,42.9,-12.7,-3.2%,
CCC1CC(C(=O)Nc2ccccc2)C(=O)O1 (centres undefined),x,0.5,1.2,x,x,
CC(C)Cn1c(CN2CCN(C)C(CCO)C2)nc2ccccc21 (centres undefined),x,0.5,-10.3,x,x,

# Random excerpt: six compounds from above
SMILES,Arbovirus inh,RecA intein inh,Mtb bLac sens,YopH PTP inh,Mtb H37Rv,others
CCC1CC(C(=O)Nc2ccccc2)C(=O)O1 (centres undefined),x,0.5,1.2,x,x,
O=C(NCCc1ccccc1)C1c2ccccc2C(=O)N1Cc1cccs1 (centres undefined),-6.2,-3.6,-6.0,x,1.1%,
O=C(CC12CC3CC(CC(Br)(C3)C1)C2)Nc1nncs1,x,-0.4,9.2,x,x,
O=C(CCNS(=O)(=O)c1ccccc1C(F)(F)F)N1CCN(C(c2ccccc2)c2ccccc2)CC1,x,7.6,-11.3,x,x,
CCOC(=O)CC1C(=O)NCCN1S(=O)(=O)c1ccc(NC(C)=O)cc1 (centres undefined),x,-3.5,-13.5,x,x,
CC(C)Cn1c(CN2CCN(C)C(CCO)C2)nc2ccccc21 (centres undefined),x,0.5,-10.3,x,x,

# (more compounds)
SMILES,Arbovirus inh,RecA intein inh,Mtb bLac sens,YopH PTP inh,Mtb H37Rv,others
COC(=O)CSC1=C(C#N)C(c2ccc(Cl)cc2)C(C(=O)OC)C(=O)N1 (centres undefined),7.3,1.0,-0.1,-29.9,x,
C=CCN(C(=O)Nc1ccc2oc(C)nc2c1)c1ccccc1,1.9,1.6,-5.5,8.8,3.1%,
CN(C(=S)Nc1ccc(Oc2ccccc2)cc1)C1CCCCC1,5.9,25.5,-0.7,-10.7,u,
CN(C)CC#CCOC(c1ccccc1)c1ccccc1,-11.6,1.8,4.0,x,-1.9%,
Cc1ccc(SCC(=O)NC2CCS(=O)(=O)C2)cc1 (centres undefined),7.1,2.1,-5.4,x,4.3%,
Brc1cccc(-c2n[nH]c(-c3ccccc3)n2)c1,-6.8,0.4,2.4,-15.6,x,
Cn1c(=O)c2c(nc(SCc3cccnc3)n2Cc2ccc(F)cc2)n(C)c1=O,6.3,1.4,5.7,-44.5,2.2%,
CCn1nc(C)c(Br)c1-c1nc(CS(=O)(=O)c2ccc(F)cc2)no1,x,2.1,-3.2,x,-1.3%,
O=C(CSc1nc2ccccc2o1)NC1CCCC1,-2.5,-0.4,1.5,x,0.1%,
O=C(NCC1CCCO1)C1CCN(C2CCN(C(=O)C3CCCCC3)CC2)CC1 (centres undefined),-3.3,-1.2,-2.0,x,-9.3%,
Cc1ccc(NS(=O)(=O)c2ccc(-n3cccn3)cc2)c(C)c1,x,1.5,-0.8,x,x,
CCOc1ccc(N2CC(C(=O)Nc3ccccc3C(=O)N3CCOCC3)CC2=O)cc1 (centres undefined),x,-1.3,7.7,x,x,
O=C(Nc1cccc2ccccc12)c1ccc(F)cc1,x,-3.5,6.7,x,x,
CCOc1ccc(N(CC(=O)NCC2CCCO2)S(=O)(=O)c2ccc(C)cc2)cc1 (centres undefined),x,-0.1,-3.1,x,x,
Cc1ccc(C(=O)NNC(=O)CSc2nc(N)cc(N)n2)cc1,-9.1,-8.5,-4.4,-52.5,2.8%,
CCN1CCN(C(=O)/C=C/c2ccc3c(c2)OCO3)CC1,-2.4,1.9,5.6,x,-11.2%,
CN(C)CCCN(C(=O)c1ccc(N2C(=O)CCC2=O)cc1)c1nc2c(F)cccc2s1,-1.8,-0.7,-3.5,x,-1.5%,
CCN1CCCC1CNC(=O)CCc1nnc(CCC2CCCCC2)o1 (centres undefined),-1.5,0.7,-1.6,x,-5.1%,
CCOC(=O)C1CCN(C(=O)c2cc(S(=O)(=O)N3CCCCC3)ccc2C)CC1,x,2.9,2.4,x,x,
COc1ccc(N(CC(=O)NCc2ccco2)S(=O)(=O)c2ccc(C)cc2)cc1OC,x,0.1,-4.0,x,x,

# Continued (two carried over from the part before).
SMILES,Arbovirus inh,RecA intein inh,Mtb bLac sens,YopH PTP inh,Mtb H37Rv,others
CCOC(=O)C1CCN(C(=O)c2cc(S(=O)(=O)N3CCCCC3)ccc2C)CC1,x,2.9,2.4,x,x,
COc1ccc(N(CC(=O)NCc2ccco2)S(=O)(=O)c2ccc(C)cc2)cc1OC,x,0.1,-4.0,x,x,
Cc1cccc(C)c1NC(=O)CSc1nnc([C@H](C)NC(=O)OC(C)(C)C)o1,-3.1,0.0,-0.2,-29.6,-7.5%,
N=c1c2c3c(sc2ncn1Cc1ccco1)CCCCC3,10.5,2.1,4.6,-34.1,4.2%,
CCOC(=O)N1CCN(C(=O)CSc2nnc(Cc3ccccc3)o2)CC1,2.3,1.2,-7.7,19.3,3.6%,
CCCCC1(CO)C(=O)N(c2ccccc2)N(c2ccccc2)C1=O,x,1.6,-5.4,x,-2.5%,
O=C(Nc1cccc2ncccc12)c1ccc(Br)c([N+](=O)[O-])c1,-4.3,0.7,0.2,x,-1.5%,
CCN(c1ccccc1)S(=O)(=O)c1cc2c(cc1C)n(C)c(=O)c(=O)n2C,x,0.7,u,x,x,
Cc1cc(C)c(C)c(C(=O)COC(=O)CNC(=O)CN2C(=O)c3ccccc3C2=O)c1C,2.9,1.5,-3.1,2.4,0.9%,
COc1ccc(C(=O)NC(=S)Nc2ccc(N3CCCC3)cc2)cc1OC,-19.6,-1.0,6.4,-21.2,11.9%,
COc1ccc(CCN2CC(C(=O)N(C)C3CCOCC3)CCC2=O)cc1 (centres undefined),x,0.9,2.6,x,x,
Cc1ccc(S(=O)(=O)NCC(C)n2cncn2)cc1 (centres undefined),x,-2.1,-1.7,x,x,
O=C(c1cccc(Cl)c1)N1CCC(=O)N(C(COCc2cccc(Cl)c2)Cc2ccccc2)CC1 (centres undefined),-27.0,18.9,23.9,-18.9,2.0%,
O=C(OCC(=O)N1CCc2ccccc21)c1c2c(nc3ccccc13)CCCCC2,11.6,1.5,12.6,-0.5,15.5%,
COc1ccc(Oc2ccc3c(C(F)(F)F)cc(C(F)(F)F)nc3n2)cc1,0.3,5.2,-10.9,-23.7,4.4%,
Cc1cccc(Nc2nc(N)c([N+](=O)[O-])c(NCCO)n2)c1,x,2.0,82.0,x,7.5%,
CC(=O)N1Cc2cc([N+](=O)[O-])ccc2Oc2ccccc21,-2.4,0.8,2.3,x,-4.1%,
O=C(Nc1ccc(S(=O)(=O)NCC2CCCO2)cc1)c1ccccc1 (centres undefined),6.5,-2.2,-2.9,x,2.6%,
CC(C)(C)NC(=O)c1ccc2c3c(cccc13)CC2,2.6,0.5,86.2,x,55.0%,
CCOC(=O)N1CCN(C(=O)CSc2ccc3nnc(-c4ccncc4)n3n2)CC1,0.4,-1.2,-6.1,x,-6.1%,
COc1ccc(CC(=O)N(C)C2CCCCC2)cc1S(=O)(=O)N1CCOCC1,6.2,6.0,6.2,x,-9.1%,
OCC[C@@H]1C[C@@H](O)[C@H](O)[C@]2(CCCO2)O1,x,-3.7,0.4,x,11.4%,
Cc1[nH]c2ccccc2c1/C=N/NC(=O)c1cc(C(C)C)[nH]n1,x,4.3,-1.3,x,-11.5%,
c1ccc(Nc2nc(N3CCCC3)nc(N3CCOCC3)n2)cc1,x,2.0,5.0,x,4.0%,
COc1ccc(OC)c(Nc2nc(N(C)c3ccccc3)nc(N)c2[N+](=O)[O-])c1,x,5.7,0.9,x,x,
CCN1CCN(C(=O)C(=O)c2cn(CC(=O)N3CCCCCC3)c3ccccc23)CC1,x,-0.3,-0.2,x,x,
Cc1ccc(/C=N/NC(=O)c2ccc(Cn3cc([N+](=O)[O-])cn3)o2)cc1,-1.1,1.5,26.4,-5.7,2.4%,
Cc1ccc(NC(=S)c2ccncc2)cc1,x,2.4,1.7,x,x,
CCC(=O)N(Cc1ccco1)Cc1cc2cc3c(cc2[nH]c1=O)OCO3,-4.0,-2.4,-2.2,x,-1.3%,
C=CCC1(C)C(=O)N(c2ccccc2)c2ccccc21 (centres undefined),-9.3,0.3,10.3,-3.0,4.3%,
COc1ccc(C)cc1NC(=O)CN1C(=O)COc2ccc(C)cc21,x,0.5,-0.2,x,x,
CC[n+]1ccc2cc(OC)c(OC)cc2c1Cc1ccc(OC)c(OC)c1,8.1,50.6*,-5.2,x,6.6%,
CCC(CC)c1nnc(NC(=O)CCS(=O)(=O)Cc2ccccc2)s1,x,0.1,-1.9,x,x,
O=C(COC(=O)c1cccnc1)NC1CCCc2ccccc21 (centres undefined),4.0,x,x,x,3.8%,
Cn1c(=O)cc(OCCCC(=O)NCc2ccccn2)c2ccccc21,-5.6,-2.6,11.1,-53.7,-14.9%,
CCOC(=O)c1sc2ccc(S(=O)(=O)N3CC(C)CC(C)C3)cc2c1N (centres undefined),-3.6,1.3,-3.1,-15.7,-9.3%,
CCOC(=O)N1CCN(C(=O)c2ccc(OC)cc2)CC1,-4.5,-1.2,-6.6,x,1.3%,
Cc1nc2sc(C(c3ccc(Cl)cc3)N3CCN(c4ccccc4F)CC3)c(O)n2n1 (centres undefined),1.0,5.5,1.2,-33.6,-1.2%,
Cn1c(Cn2nnc3ccccc32)nnc1SCC(=O)c1ccccc1F,2.8,0.9,3.7,4.2,-3.9%,
COC(=O)c1ccccc1-n1c(CCC(=O)O)ccc1-c1ccccc1,x,2.2,-19.5,x,x,
CN(C)c1nnnn1Cc1ccccc1,5.8,1.1,-5.8,x,x,
CSc1ccc(CN2CCCCCC2)cc1,x,1.6,-3.1,x,x,
CC(NC(=O)[C@H](C)NC(=O)c1ccco1)c1ccc(S(N)(=O)=O)cc1 (some centres undefined),x,-3.8,-3.1,x,x,
COc1ccc2oc(C(=O)OCC(=O)NCCc3ccccc3)c(C)c2c1,x,-1.5,-11.9,x,x,
CCOC(=O)c1c(-c2ccc(C)cc2)csc1NC(=S)NC(=O)c1ccccc1,15.7,-3.0,-0.7,-30.7,2.8%,
COC(=O)CCC(=O)c1oc2ccc(OC)cc2c1N,-1.1,-6.2,-18.0,-34.1,1.6%,
COc1ccc(S(=O)(=O)Cc2ccc(C(=O)NCCc3cc(OC)ccc3OC)o2)cc1,-1.7,6.1,-7.3,x,-1.5%,
NC(=O)c1ccccc1NC(=O)c1ccc2c(c1)OCO2,x,-1.0,-7.3,x,x,

# Source: PubChem
